Autofluor counter: compound fluorescence in toxin protease inhibitor counterscreen. compound autofluorescence counterscreen, microsphere flow cytometry; active compounds read high. fluorescence intensity (no concentration beside the values). 3.1% of 360,000 active. AID 624483;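 active means at least 3 SD above the mean of all compounds, about 16000 in these data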;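 further: 100 nL of 1 mM stock went into each well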
Numbers without * were called inactive. A portion of the library. The share of hits here may be higher or lower than overall.

SMILES	Autofluor counter
Cc1ccc(S(=O)(=O)N(C)C[C@H]2OCCCC[C@@H](C)Oc3ccc(NC(=O)Cc4ccccc4)cc3C(=O)N([C@H](C)CO)C[C@@H]2C)cc1	2872
CC1(C(=O)Nc2cccc3ccccc23)CCN1C(=O)C1(c2ccccc2)CCCC1 (centres undefined)	3942
CCc1cc(C(=O)OCC(=O)NCCc2ccccc2)sc1C	2987
CC1(Cc2ccccc2F)C(=O)Nc2c(Cl)ccc(Cl)c21 (centres undefined)	3180
CC(C)CCN1CCC[C@]2(N[C@H](c3ccccc3)[C@@H]3C(=O)N(Cc4ccccc4)C(=O)[C@@H]32)C1=O	3441
COc1cc(OC)nc(Nc2nc(C(N)COCc3ccccc3)cs2)n1 (centres undefined)	3697
CC1(C(=O)NS(=O)(=O)c2ccc(C#N)cc2)CCN1C(=O)Cc1ccc(Cl)cc1Cl (centres undefined)	4102
O=C(Nc1ccccc1)C1=C(Nc2ccccc2)CSC1	3816
CC(=O)c1ccc(Nc2ncnc3ccc(Br)cc23)cc1	4629
CC(=Nc1ccccc1)C1=C(O)C(Cc2ccc(F)cc2)NC1=O (centres undefined)	3359
CCN(CC)C(=O)c1ncn2c1c(=O)[nH]c1ccccc12	3160
O=C(Nc1nnc([C@H]2C[C@H](O)[C@@H](CO)O2)s1)Nc1ccccc1C(F)(F)F	3027
CC1Cc2[nH][nH]c(=O)c2C(C2CCCC2)O1 (centres undefined)	6278
CCN(CC)c1ncnc2c1ncn2[C@H]1CN(Cc2ccco2)C[C@@H](CO)O1	3594
Cc1nn(C)c2c1NC(=O)CS2	3045

Five records drawn at random from the list so far:
SMILES	Autofluor counter
CCc1cc(C(=O)OCC(=O)NCCc2ccccc2)sc1C	2987
CC1Cc2[nH][nH]c(=O)c2C(C2CCCC2)O1 (centres undefined)	6278
CCN(CC)C(=O)c1ncn2c1c(=O)[nH]c1ccccc12	3160
O=C(Nc1ccccc1)C1=C(Nc2ccccc2)CSC1	3816
CCN(CC)c1ncnc2c1ncn2[C@H]1CN(Cc2ccco2)C[C@@H](CO)O1	3594

Remaining list, next part.
SMILES	Autofluor counter
COc1ccc(S(=O)(=O)NC(=O)C2(C)CCN2C(=O)Cc2ccc(C(C)(C)C)cc2)cc1 (centres undefined)	3693
COc1ccc(C)cc1-n1c(SCC(=O)N2CCOCC2)nc2ccccc2c1=O	4099
CCc1ccc(C(O)c2ncc(-c3cccc4ccccc34)[nH]2)cc1 (centres undefined)	3111
COCCNC(=O)C1CCCN(C(=O)c2ccnc(Cl)c2)CC1 (centres undefined)	3983
CCNC(=O)C1CCCN(C(=O)c2ccco2)CC1 (centres undefined)	3339
CC1(C(=O)NS(=O)(=O)c2cccc(F)c2)CCN1C(=O)C1(c2ccc(Cl)cc2)CCC1 (centres undefined)	3851
COc1ccccc1-c1cnc(C(O)c2ccc(C)cc2)[nH]1 (centres undefined)	3650
C[C@@H]1CN([C@H](C)CO)S(=O)(=O)c2ccc(C#CC3CCCC3)cc2O[C@H]1CN(C)C(=O)Cc1ccccc1	4071
C[C@@H](c1ccccc1)N1C[C@H](COCc2ccccc2)Oc2cc(N3CC[C@H](O)C3)ccc2S1(=O)=O	4957
CC(C)C(N)c1csc(Nc2nncc3ccccc23)n1 (centres undefined)	4035
C=C1C2=C(C(=O)N1OC)[C@@H](O)[C@@](C)(O)[C@@H](CCCCC)O2	5416
COc1ccc(F)cc1-c1cc(C(=O)NCc2ccccc2)[nH]n1	3038
COc1ccc(NC(=O)CN(C)C(=O)c2ccc3c(c2)CC(c2ccccc2)OC3=O)cc1 (centres undefined)	3715
CS(=O)(=O)Nc1cccc(NC(=O)c2cccc3c(-c4ccc(F)c(F)c4)coc23)c1	4028
CC(C)C1C(=O)N(Cc2cn(CCC3OCCO3)nn2)CCS(=O)(=O)N1Cc1ccc(-c2ccc(F)nc2)cc1 (centres undefined)	3727
O=C(NN1CCCCC1)NN1CCCCC1	5973
COc1ccc(-c2cc3nc(C)c(C)c(N4CCN(C(=O)c5ccoc5)CC4)n3n2)cc1	3931
c1ccc2c(c1)nc(N1CCCCCC1)c1nncn12	3533
Cc1ccc2nc(C(C)(C)C)c(Cc3cccc(Cl)c3)n2c1	6585
Cc1ccc(S(=O)(=O)N(C)C[C@H]2OCc3cnnn3CCCC(=O)N([C@@H](C)CO)C[C@H]2C)cc1	3345
CN(C)CCN(C(=O)C1CCCCC1)c1nc2cc3c(cc2s1)OCCO3	4017
C[C@@H]1CN([C@H](C)CO)C(=O)c2cc(NC(=O)Nc3ccc(F)cc3)ccc2O[C@@H](C)CCCCO[C@H]1CN(C)Cc1ccc(C(=O)O)cc1	2817
CC1(C(=O)NS(=O)(=O)c2cccc(C#N)c2)CCN1C(=O)c1ccc(C2CCCCC2)cc1 (centres undefined)	4502
CCSc1nnc(NC(=O)C2CCCN(C(=O)c3ccc(Cl)cc3)C2)s1 (centres undefined)	4064
CCc1nc2ccc(C(=O)NCCN3CCOCC3)cn2c1N(C=O)Cc1ccc(OC)cc1	4087
CCCS(=O)(=O)NC(=O)C1(C)CCCN(C(=O)c2ccnc(Cl)c2)C1 (centres undefined)	3776
COc1ccc(C(C)=NNS(=O)(=O)c2ccc(C)cc2)cc1OC	3777
COc1ccc(S(=O)(=O)N2CCOCC2)cc1C(=O)Nc1cccc(C(=O)NC2CC2)c1	3503
NS(=O)(=O)c1ccc(CCNC(=O)C2CCCN2C(=O)c2cccs2)cc1 (centres undefined)	2824
CCOC(=O)C1(C(=O)OCC)COC(=O)C1CN1Cc2cc3ccccc3nc2C1 (centres undefined)	4519
O=C(Nc1cccc(C(F)(F)F)c1)c1csc([C@@H]2O[C@H](CO)[C@H](O)[C@H](O)[C@H]2O)n1	3885
Brc1ccc2nc(C3CCCCC3)c(Cc3ccsc3)n2c1	5853
CC1(Cc2cccc(C#N)c2)C(=O)Nc2c(Cl)cccc21 (centres undefined)	2929
O=C(OCCOc1ccccc1)c1cc(S(=O)(=O)N2CCOCC2)c(Cl)cc1Cl	3876
COCCNC(=O)c1ccc(-c2cn[nH]c2)c2ccoc12	2997
COc1ccc(F)cc1-c1cc(C(=O)NC2CCCCC2)[nH]n1	5355
O=[N+]([O-])c1ccc(N2CCOCC2)c2c1no[n+]2[O-]	2806
C=CCNc1nc2cc(-c3cccc(Cl)c3)sc2c(=O)n1C	3733
CC(=O)c1sc(NC(=O)CCS(=O)(=O)c2ccc(F)cc2)nc1C	2613
CCc1nc2ccc(C(=O)N(C)Cc3ccco3)cn2c1N(C)C(=O)Cc1ccccc1	3666
COC(=O)c1ccc2nc(-c3ccc(C)cc3)c(Cc3ccsc3)n2c1	7874
COc1ccccc1CNc1nc(NCc2ccc(NC(C)=O)cc2)c2sccc2n1	4126
COc1cc(NC(=O)c2ccc(-c3cnn(C)c3)c3ccoc23)cc(OC)c1OC	4045
COc1cc(-c2cc3nc(NCCc4ccncc4)ccn3n2)cc(OC)c1OC	3923
COc1ccc(NC(=O)C2(C)Cc3c(-c4ccc(N(C)C)cc4)ccnc3O2)cc1OC (centres undefined)	3030

Compounds from the list above that have an NH in an aromatic ring:
SMILES	Autofluor counter
CCN(CC)C(=O)c1ncn2c1c(=O)[nH]c1ccccc12	3160
CC1Cc2[nH][nH]c(=O)c2C(C2CCCC2)O1 (centres undefined)	6278
CCc1ccc(C(O)c2ncc(-c3cccc4ccccc34)[nH]2)cc1 (centres undefined)	3111
COc1ccccc1-c1cnc(C(O)c2ccc(C)cc2)[nH]1 (centres undefined)	3650
COc1ccc(F)cc1-c1cc(C(=O)NCc2ccccc2)[nH]n1	3038
COCCNC(=O)c1ccc(-c2cn[nH]c2)c2ccoc12	2997
COc1ccc(F)cc1-c1cc(C(=O)NC2CCCCC2)[nH]n1	5355

Continued.
SMILES	Autofluor counter
CC(C)CNC(=O)C1(C)CCCCCN1C(=O)c1csnn1 (centres undefined)	3795
CN(Cc1cc(Cl)cc(Cl)c1)[C@H]1C[C@H]2c3[nH]c4ccccc4c3CCN2C(=O)[C@H]1CO	3449
O=C(NCC1CCOCC1)c1cccc2c(-c3cccnc3)coc12	3467
CCc1nc2ccc(C(=O)N(C)CCN(C)C)cn2c1N(C)CCC(C)C	3959
CCc1nc2ccc(C(=O)NCc3ccc(OC)cc3)cn2c1N(C)C(=O)Cc1ccccc1	3799
Cc1ccc(Cc2c(-c3ccc(Br)cc3)nc3ccc(Br)cn23)cc1	3715
C[C@H](c1ccccc1)N1C[C@H](COCc2ccccc2)Oc2cc(N3CCC[C@H]3C(N)=O)ccc2S1(=O)=O	4297
OC(c1ccc(F)c(F)c1)c1ncc(-c2cccc(F)c2)[nH]1 (centres undefined)	3604
C[C@@H]1CN([C@@H](C)CO)C(=O)c2cc(Br)cnc2O[C@H]1CN(C)C(=O)NC1CCCC1	3659
CS(=O)(=O)Nc1ccccc1-c1ccc2nccn2c1	4036
COc1ccc(C(=O)N2CCCCC2c2cc(C(=O)Nc3ccc(OC)cc3C)no2)cc1 (centres undefined)	4182
CC1=C(C(=O)N(C)C)CC(CC(=O)NCc2cccs2)C(=O)N1Cc1ccccc1 (centres undefined)	3539
Cc1ccccc1-c1cnc(C(O)c2ccc(Cl)cc2)[nH]1 (centres undefined)	3793
CC(C)c1ccc(CC(=O)N2CCC2(C)C(=O)NS(=O)(=O)c2cccc(OC(F)F)c2)cc1 (centres undefined)	3498
COc1ccc(N2C(=O)CC(Sc3nccc(C)n3)C2=O)c(OC)c1 (centres undefined)	3374
O=C(Nc1ccnn1C1CCN(C(=O)c2cccnc2)CC1)c1cccc(F)c1	3740
COc1ccc(C(=O)Nc2cccc(NC(C)=O)c2)cc1	3263
O=c1[nH][nH]c2c1[C@H](c1ccc(Cl)cc1)O[C@H](C1CCCC1)C2	5899
CCOC(=O)[C@]12CCC=C1N(Cc1ccccc1)C(=O)[C@H](CC(=O)NCc1cccs1)C2	5963
CN(C)c1ccc(C(=O)C=Cc2ccc([N+](=O)[O-])cc2)cc1	3795
CCOC(=O)C1=CCN(S(=O)(=O)c2ccccc2C)C1c1cccc(F)c1 (centres undefined)	6089
O=c1[nH][nH]c2c1[C@@H](c1ccc(F)cc1)O[C@H](CCOCc1ccccc1)C2	5564
CC(=O)NC(c1cccc(F)c1)c1nc(-c2ccc(N(C)C)cc2)cs1 (centres undefined)	3133
CCn1c(=O)c2[nH]c(SC)nc2n(CC)c1=O	2894
CCN(CC)C(=O)c1cccc(-c2csc(C(O)c3cccc(OC)c3)n2)c1 (centres undefined)	3762
CC1(C(=O)NS(=O)(=O)c2ccc(Cl)cc2)CCN1C(=O)Cc1ccc(Cl)cc1Cl (centres undefined)	2923
O=C(NC1CCCCC1)C(c1cc2ccccc2o1)N1CCOCC1 (centres undefined)	5980
CCc1ccccc1Oc1nc(NCc2ccccc2)nc2ccsc12	3709
O=C(NCCCN1CCOCC1)c1[nH]c(C(F)(F)F)nc1-c1ccccc1	6065
COCCNC(=O)C1(C)CCCN(Cc2ccc(-n3ccnc3)cc2)C1 (centres undefined)	2992

4 entries out of the list, sorted by formula weight, low to high.
SMILES	Autofluor counter
CCn1c(=O)c2[nH]c(SC)nc2n(CC)c1=O	2894
O=c1[nH][nH]c2c1[C@H](c1ccc(Cl)cc1)O[C@H](C1CCCC1)C2	5899
CCOC(=O)C1=CCN(S(=O)(=O)c2ccccc2C)C1c1cccc(F)c1 (centres undefined)	6089
CCOC(=O)[C@]12CCC=C1N(Cc1ccccc1)C(=O)[C@H](CC(=O)NCc1cccs1)C2	5963

Next part.
SMILES	Autofluor counter
CCN1C(=O)[C@H]2[C@@H](c3ccc(C)cc3)N[C@]3(CCCN(Cc4ccc(C(F)(F)F)cc4)C3=O)[C@H]2C1=O	3068
COc1cccc2c(=O)c3c(oc12)CCCC3	3957
CCCCNC(=O)C1(C)CCN1C(=O)c1cc2ccccc2s1 (centres undefined)	2893
CC1(C(=O)Nc2ccccc2Br)CCN1C(=O)Cc1ccc(Cl)cc1Cl (centres undefined)	2891
O=C(NCc1ccncc1)[C@@H]1CCCN1C(=O)[C@H]1CCCN1C(=O)c1ccccc1	4329
COc1ccccc1Cc1c(C(C)(C)C)nc2cc(C)c(Br)c(C)n12	5293
CC1(C(=O)NS(=O)(=O)c2ccc(Br)cc2)CCN1C(=O)C/C=C/c1ccccc1 (centres undefined)	3520
CN(C)c1ccc(C=O)c(Oc2ccccc2)c1	3792
CC(O)(c1cccnc1)c1nc(-c2ccc(F)c(Cl)c2)cs1 (centres undefined)	3993
C(=C\c1ccccc1)/CN1CCN(C(c2nnnn2C2CCCCC2)C2CC2)CC1 (centres undefined)	6223
CC1(C(=O)Nc2cccc3c2CCCC3)CCN1C(=O)Cc1ccccc1Cl (centres undefined)	4254
O=C1c2ccccc2C(c2nnnn2-c2ccc3c(c2)OCCO3)N1CCc1ccccc1F (centres undefined)	6084
CCc1nc2ccc(C(=O)NCCN3CCNC3=O)cn2c1N(C)CCC(C)C	3954
CCOC(=O)c1ccc(-c2ccc3ncnc(NCc4csc(C)n4)c3c2)o1	2949
NC(=O)c1cccc(-c2csc(C(O)c3cccc(Cl)c3)n2)c1 (centres undefined)	3816
Cc1noc(C)c1S(=O)(=O)N(C)C[C@@H]1OCc2cnnn2CCCC(=O)N([C@H](C)CO)C[C@@H]1C	3793
CC(C)[C@H](COC=O)NC(=O)[C@H]1O[C@@H](n2ccc(N)nc2=O)[C@H](O)[C@@H]1O	4395
COC(=O)c1ccc2nc(-c3ccco3)c(Cc3cccc(F)c3)n2c1	5893
O=C(NC1CCCC1)C1c2ccccc2OCC(=O)N1C1CC1 (centres undefined)	5844
Cc1cnc(CNC(=O)c2csc([C@@H]3C[C@H](O)[C@@H](CO)O3)n2)cn1	3735
CN1CCN(c2ccc(CNC(=O)C3Cc4c(-c5ccccc5Oc5ccccc5)ccnc4O3)cc2)CC1 (centres undefined)	2996
COC(=O)c1ccc2nc(-c3ccco3)c(Cc3cccc(Cl)c3)n2c1	4815
CC(C)CN(C(=O)CSc1nc2ccccc2[nH]1)c1c(N)n(Cc2ccccc2)c(=O)[nH]c1=O	2856
CCCCN1C(=O)C(CC(=O)NC2CCCC2)CC(C(=O)N2CCOCC2)=C1C (centres undefined)	3478
CCC(CC)c1nnc(NC(=O)Cc2c[nH]c3ccccc23)s1	4112
CCNC(=O)N1Cc2ccccc2-n2nncc2C1	3882
COc1cccc(CCN2C(=O)CCC3=C2CCC3=O)c1	6352
